# Screening results (PubChem)
# Menin MLL FP FL – qHTS Assay for Inhibitors Targeting the Menin-MLL Interaction in MLL Related Leukemias: Competition With Fluorescein Labeled MLL-derived Peptide | Fluorescence polarization, fluorescein-MLL peptide displacement from menin | FP activity change, % at 61.4 µM | 290,000 tested, under 10 active | AID 1766, 2009; inconclusive = falling polarisation curve, or a change in total fluorescence; inactive = total fluorescence flat and polarisation flat or rising; no compound was filed as active; the % refers to the polarisation; negative = inhibition;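 note: % of control where 0% means no effect; inhibitors lower the polarisation; unlabelled MLL peptide was the positive control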
# Sfp PPTase inh – qHTS Assay for Inhibitors of Bacillus subtilis Sfp phosphopantetheinyl transferase (PPTase). 310,000 compounds, 3.5% hits. Potency, µM, without a hit: max response, negative = inhibition, hits mostly inhibitors. Biochemical Sfp PPTase activity, qHTS. 4'-phosphopantetheinyl transferase ffp (Bacillus subtilis), Q9F4F7; active = well fitted inhibition curve with a large enough effect; inconclusive = small, poorly fitted or top-dose-only effect, or another doubt; inactive = no such curve, though single readings can be large or run the other way;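 note: the enzyme is Sfp with the accession as filed and its product quenches rhodamine fluorescence; potency is the fitted concentration of half-maximal effect; 0% = enzyme reaction without inhibitor and -100% = no enzyme wells; top concentration of the series not given in the record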
#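 Fluorescence-quenching assay: 15 nM Sfp-PPTase preincubated 15 min at room temperature with compound, then 5 uM rhodamine-CoA and 12.5 uM BHQ-2-labelled YbbR peptide added. Fluorescence (ex 525/em 598 nm) read at start and after 30 min; difference gives rate.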
# CtBP-E1A inh – qHTS Assay for Inhibitors of the CtBP/E1A Interaction | CtBP / adenovirus E1A interaction (AlphaScreen) | AlphaScreen GST-E1A/His-CtBP binding, 1536-well; active compounds read low; control for the full effect not named in the record | activity change, % (concentration not given with the values) | 340,000 compounds, 0.49% hits; in the data active means activity change below about -65%; inconclusive means about -30% to -65%; inactive means above about -30%; note: % is set by controls: 0 for no effect and ±100 for the full control effect
#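 Protein mix (5X: 125 nM each GST-E1A, His-CtBP) was incubated with pinned compound 2 h at 37 deg C in dark, in 50 mM Tris pH 8.0 buffer with 300 mM NaCl. Glutathione donor and nickel acceptor beads followed; AlphaScreen signal read after 1 h.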
# TRPV1 potentiator – HTS Assay for Compounds that Act as Potentiators of the Vanilloid Receptor 1 | TRPV1-expressing cells, Fluo-8 calcium influx, capsaicin EC20 potentiation; host cell line not named in the record; control for the full effect not named in the record | Transient receptor potential cation channel subfamily V member 1 (Homo sapiens), Q8NER1 | 320,000 compounds, 0.02% hits | potentiation, % at 8.33 µM | AID 540277, 2011; active means potentiation above 80%; inconclusive means 30% to 80%; inactive means below 30%; note: 0% is about no effect
# Target sequence (Q8NER1 whole entry, looked up): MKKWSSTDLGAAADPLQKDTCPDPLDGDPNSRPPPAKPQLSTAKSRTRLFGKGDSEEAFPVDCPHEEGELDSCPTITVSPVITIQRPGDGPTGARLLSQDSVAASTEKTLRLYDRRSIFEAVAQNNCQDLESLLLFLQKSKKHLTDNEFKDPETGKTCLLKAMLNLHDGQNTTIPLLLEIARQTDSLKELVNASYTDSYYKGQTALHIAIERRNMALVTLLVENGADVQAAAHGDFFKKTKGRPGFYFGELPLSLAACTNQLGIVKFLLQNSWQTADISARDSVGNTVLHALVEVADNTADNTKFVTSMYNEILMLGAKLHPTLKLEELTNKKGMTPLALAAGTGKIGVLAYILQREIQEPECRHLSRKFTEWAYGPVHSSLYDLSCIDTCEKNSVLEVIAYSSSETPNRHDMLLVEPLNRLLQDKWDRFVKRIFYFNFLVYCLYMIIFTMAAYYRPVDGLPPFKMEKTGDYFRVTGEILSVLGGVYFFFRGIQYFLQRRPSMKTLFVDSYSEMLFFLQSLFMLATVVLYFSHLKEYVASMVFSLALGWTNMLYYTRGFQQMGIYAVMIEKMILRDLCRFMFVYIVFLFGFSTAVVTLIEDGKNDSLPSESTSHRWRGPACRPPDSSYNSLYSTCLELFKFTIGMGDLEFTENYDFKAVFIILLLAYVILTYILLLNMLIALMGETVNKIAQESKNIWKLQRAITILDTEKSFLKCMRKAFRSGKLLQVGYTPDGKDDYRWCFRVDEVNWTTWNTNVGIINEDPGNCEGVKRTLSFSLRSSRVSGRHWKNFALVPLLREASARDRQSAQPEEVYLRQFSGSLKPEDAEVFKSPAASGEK
#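 Fluo-8 calcium influx in TRPV1-expressing cells, kinetic read (ex 480/em 520 nm). Compound added and read 3 min for agonist activity, followed by capsaicin at EC20 final and 2 min further read for enhancement.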
# gsp antag – qHTS for Antagonists of gsp, the Etiologic Mutation Responsible for Fibrous Dysplasia/McCune-Albright Syndrome: qHTS | Potency, µM (doses to about 76.9 µM), inactives show at the highest dose activity change, negative = inhibition, most hits filed as inhibitors | gsp-mutant cells, cAMP HTRF, 30 min; control for the full effect not named in the record | 340,000 compounds, 0.4% hits; active = falling curve of any shape with a large fitted effect; inconclusive = falling curve, mostly with a smaller effect; inactive = flat or rising curve; cell line not stated here;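 note: intracellular cAMP measured with PDE inhibitor Ro 20-1724 present during compound exposure; potency is the fitted concentration of half-maximal effect; % is set by controls: 0 for no effect and ±100 for the full control effect; nearly all actives have a fitted effect of over 65% in size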
#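 Measurement of cellular cAMP by homogeneous time-resolved fluorescence following a 30 min compound exposure at 37C. The PDE inhibitor […] was present throughout; the assay buffer was DPBS with 0.05% BSA and 0.005% Tween 20.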
# ClpP mod – qHTS Assay for Activators of ClpP | AID 651965, 2013 | ATP-dependent Clp protease proteolytic subunit (Bacillus subtilis (strain 168)), P80244 | Potency, µM (doses to about 57.5 µM), without a hit: at the highest dose activity change, negative = active | purified B. subtilis ClpP, FRET peptide cleavage, 20 min | 340,000 compounds, 1.9% hits; active = well fitted falling curve with a large enough effect; inconclusive = small, poorly fitted or top-dose-only effect; inactive = no such curve, though single readings can be large or run the other way; note: potency is the fitted concentration of half-maximal effect; the source files actives as falling curves though it sought activators and does not explain the sign; nearly all actives have a fitted effect of over 65% in size; many hits overshoot -100%
# Target sequence (P80244 whole entry, looked up): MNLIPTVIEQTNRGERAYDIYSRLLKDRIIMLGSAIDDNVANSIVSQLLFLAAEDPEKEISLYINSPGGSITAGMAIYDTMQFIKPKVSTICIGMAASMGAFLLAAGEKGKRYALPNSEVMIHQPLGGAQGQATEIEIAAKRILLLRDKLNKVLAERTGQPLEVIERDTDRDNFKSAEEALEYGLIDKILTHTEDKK
#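 Purified B. subtilis ClpP, 10 microg/mL final in Tris/HCl pH8 with KCl, BSA, glycerol and Tween-20, cleaved an Abz/nitrotyrosine-quenched decapeptide. Fluorescence (ex 320, em 430) was read at 0 and 20 min at room temperature. Delta was normalized to 5.8 microM ADEP and DMSO/no-enzyme controls.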
# gsp agonist – qHTS for Agonist of gsp, the Etiologic Mutation Responsible for Fibrous Dysplasia/McCune-Albright Syndrome: qHTS | gsp mutant cells, cAMP HTRF, 30 min; control for the full effect not named in the record | Potency, µM (series often up to 76.9 µM), without a hit: at the highest dose activation (cAMP increase), most hits filed as activators | 340,000 compounds, 0.13% hits | AID 624287, 2012; active = well fitted activation curve with a large enough effect; inconclusive = small, poorly fitted or top-dose-only effect, or another doubt; inactive = no such curve, though single readings can be large or run the other way; cell line not stated here;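 note: phosphodiesterase inhibitor Ro 20-1724 added with compounds to block cAMP breakdown; potency is the fitted concentration of half-maximal effect; nearly all actives have a fitted effect of over 60% in size; about a fifth of the inactives were tested at one dose only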
#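 Cells stably selected in G418 were plated at 2000/well, grown 16-24 hr, then given compounds in DMSO with the PDE inhibitor […] (300 uM solution added) for 30 min at 37C; cAMP was read by HTRF.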
# An asterisk follows results filed as active; ? = inconclusive; nt = not tested or not shown; & = joins results of further samples; [ ] = another dose, or the depositor's remark. Only part of the results is shown; the hit share may differ from the screen's.
SMILES,Menin MLL FP FL,Sfp PPTase inh,CtBP-E1A inh,TRPV1 potentiator,gsp antag,ClpP mod,gsp agonist
C=CCN1C(=O)C2(C(C(=O)OCC)=C(N)Oc3ccccc32)C2=C1CCCC2=O (stereo unspecified),4.0,6%,-3,-2,11%,0.6%,-5%
CCOc1cc(C)cc2oc(=O)c3c(c12)CCCC3,4.1,17%,4,11,8%,nt,3%
Cc1cccc(NC(=O)CN2CCN(C(=O)COc3cccc(Br)c3)CC2)c1C,nt,nt,-5,-21,-11%,0.4%,-19%
Oc1ccc2c3c1OC1[C@H](O)CC[C@@]4(O)[C@@H](C2)N(CC2CC2)CC[C@]314 (stereo partly specified),nt,nt,1&4,nt,4%&3%,0.0%&0.4%,nt
Cc1ccc(C2(O)CN3CCC2CC3)cc1 (stereo unspecified),-18,-9%,3,4,8%,-1.5%,-18%
N/C(=N\N=C\c1ccc(O)cc1O)N[N+](=O)[O-],1.5,5%,-83*,1,10%,-1.7%,23%
CCOc1ccccc1N=Cc1c(O)n(C)c(=O)n(C)c1=O,5.4,7%,6,-3,-7%,-29%,?
O=C(Oc1ccc(Cl)c2ccccc12)N1CCCCC1,0.5,-13%,15,4,-9%,28µM*,-22%
Cc1ccc(S(=O)(=O)N2CC3CC(C2)c2cccc(=O)n2C3)cc1 (stereo unspecified),-1.3,12%,2,-3,10%,-6.1%,22%
Cc1[nH]c2ccccc2c1CCCNC1CCCCC1,-27,-47%,-8,-14,-1%,-17%,-10%[15.4 µM]
CC1(C)CSC(=NCc2ccccc2)N1,-0.1,10%,nt,-26,1%,-1.3%,-3%
COc1cc(C(C#N)N2CCCCC2)ccc1O (stereo unspecified),5.5,8%,-1,0,1%,0.2%,13%
CCN(CC)c1ccc(/C=C2/C(=O)NC(=O)N(Cc3ccco3)C2=O)cc1,?,50µM*,5,-5,-16%,-27%,1%
COCCNC(=O)Cn1cc(/C=C2\C(=O)NC(=O)N(c3cccc(C)c3C)C2=O)c2ccccc21,2.5,-27%,2,18,?,-0.1%,-4%[15.4 µM]
CCCOP(=O)(OCCC)C(NC(=O)c1cc(OC)c(OC)c(OC)c1)c1ccccc1 (stereo unspecified),-0.5,-1%,-10,3,nt,nt,-13%[15.4 µM]
Cc1cccc(OCC(O)CN2CC2)c1 (stereo unspecified),nt,nt,3,nt,nt,0.4%,-3%
Cc1cc(C)cc(NC(=O)Cn2c(=O)oc3cc(S(=O)(=O)N4CC(C)CC(C)C4)ccc32)c1 (stereo unspecified),6.6,33%[activator],-3,13,-20%,-0.3%,6%
COc1cc(CNCCc2ccc3c(c2)OCO3)cc(OC)c1OC,-4.3,-19%,-8,0,5%,nt,-24%[15.4 µM]
S=c1[nH]c2ccccc2[nH]1,3.2,-2%,9,0,-12%,-1.5%,1%[15.4 µM]
COc1ccc(-n2c(=S)[nH]c3c(sc(=S)n3-c3ccccc3)c2=O)c(OC)c1,-3.0,14µM*,-11,1,-14%,11µM*,9%[15.4 µM]
CCOP(=O)(OCC)C(NS(=O)(=O)c1ccccc1)C(Cl)(Cl)Cl (stereo unspecified),5.5,-4%,-5,0,3%,nt,?
O=C1NC(=O)N(CCc2ccc(F)cc2)C(=O)/C1=C/c1ccco1,?,50µM*,-5,6,-1%,nt,-8%[15.4 µM]
N#Cc1ccc(Cn2cc(C(=O)c3ccco3)c3ccccc32)cc1,4.5,13%,-10,?,-21%,-11%,-2%
COC(=O)c1ccc(CN2CCSC2=N)cc1,nt,10%,nt,4,5%,0.3%,?
C[N+]1(CC(COCc2ccccc2)OC(=O)Cc2ccccc2)CCOCC1 (stereo unspecified),-0.1,15%,8,-1,13%,-19%,1%
C=C1C2C[C@H](O)C(C)(C)[C@@]2(O)[C@H](O)C[C@]23C[C@@](C)(O)[C@H](CC[C@H]12)[C@H]3OC(C)=O (stereo partly specified),-2.5,-1%,-1,9,8%,0.4%,1%
[O-]c1ccccc1-[n+]1c(-c2ccccc2)cc(-c2ccccc2)cc1-c1ccccc1,nt,nt,-9,-1,2%,-7.2%,nt
O=C/C=C/c1ccccc1,1.6,8%,4,nt,-2%,-1.4%,-26%
Cc1ccc(-n2c(O)c(/C=N/NC(=O)c3ccncc3)c(=O)[nH]c2=O)cc1C,6.0,13%,4,-16,1%,-8.3%,-26%[15.4 µM]
Cc1ccc(C(=O)COC(=O)Cc2ccccc2)cc1,-1.3,4%,23,-10,1%,-1.4%,12%[15.4 µM]
CNCCc1c[nH]c2ccc(O)cc12,?,-1%,-7,nt,-22%,-6.8%,nt
Cc1cccc(C)c1N1CCN(c2c(C)cccc2C)CC1,-1.4,5%,6,6,12%,nt,-27%
CCCc1nc2ccccc2c(=O)n1-c1cccc(OC)c1,1.5,6%,7,nt,-6%,-1.1%,-16%
Cc1nn(C)cc1/C=C1/CC2C3CC=C4CC(O)CCC4(C)C3CCC2(C)C1=O (stereo unspecified),nt,nt,0,nt,?,0.7%,10%
COc1ccc2c(c1)CC1(CN2C)C(=O)NC(=O)N(c2ccc(C)cc2)C1=O (stereo unspecified),1.7,-5%,0,14,1%[15.4 µM],-12%,0%
CC12C(C(=O)O)C1(c1ccccc1)C2C(=O)O (stereo unspecified),nt,nt,12,nt,9%,-0.9%,-1%
CNC(=O)O/N=C(\N)Cc1csc2ccc(Cl)cc12,-3.8,-15%,3,14,-2%,nt,22%[15.4 µM]
O=c1c2ccccc2nc(CNc2ccccc2)n1-c1ccccc1,-1.5,-4%,6,5,15%,nt,-29%
O=C(Nc1ccc(Cl)c(Cl)c1)c1ccco1,-0.2,7%,9,-6,-8%,-0.9%,-3%[15.4 µM]
CC(=O)C12CC(C)=C(C)CC1CC1C3CCC4=CC(=O)CCC4(C)C3CCC12C (stereo unspecified),nt,nt,nt,nt,-12%,-1.9%,?
Cc1[nH]c2ccc(O)cc2c1CCN,-4.9&16,?,-5,-2,-29%,-28%,nt
O=C(NCCCN1CCOCC1)C(Cl)(Cl)Cl,4.4,-4%,12,-9,8%,-3.8%,1%
COc1ccc(C(Nc2ccccc2)P(=O)(Oc2ccccc2)Oc2ccccc2)cc1 (stereo unspecified),0.9,?,12,-5,-2%,-2.3%,-33%[inhibitor]
CCOP(=S)(OCC)SCC(=O)NC(C(=O)O)C(C)C (stereo unspecified),1.2,-19%,5,-5,-8%,-1.0%,-35%[inhibitor]
CCN(c1ccccc1)S(=O)(=O)c1cccc(C(=O)NCc2cccnc2)c1,nt,nt,-14,13,1%,-2.3%,-6%
CN(C=O)CP(=O)(O)CN(C)C=O,1.4,7%,4,-2,-1%,-2.7%,4%
CC(C)(C)OC(=O)c1c(N)n(Cc2ccco2)c2nc3ccccc3nc12,?,?,-2,-9,?,-0.8%,12%[15.4 µM]
CCCCNC(=O)c1c(N)n(Cc2ccc3c(c2)OCO3)c2nc3ccccc3nc12,2.0,11%,29,3,38%[activator],10µM*,-15%
CN(C)C(=O)Oc1ccc(Br)c2ccccc12,0.3,0%,8,-6,-4%,0.3%,?
c1cncc(CNC2CCCC2)c1,5.0,-1%,nt,22,3%,0.0%,-16%
# Going on with the list.
SMILES,Menin MLL FP FL,Sfp PPTase inh,CtBP-E1A inh,TRPV1 potentiator,gsp antag,ClpP mod,gsp agonist
CC(C)c1ccc(OCC(=O)N2CCCN(C)CC2)cc1,nt,7%,6,-4,3%,0.3%,20%
N#CCCCCC#N,nt,nt,-17,nt,-2%,-3.6%,-42%[inhibitor]
O=c1c2ccccc2nc(CSc2ncnc3nc[nH]c23)n1-c1ccc(Cl)c(Cl)c1,4.9,17%,2,28,2%,-2.5%,-18%
COc1ccc2nc3oc(C(=O)N4CCC5(CC4)OCCO5)cc3cc2c1,-0.3,16%,?,2,5%,4.3%,24%
Nc1ccncc1Cl,-3.5,15%,nt,-1,4%,-3.7%,?
COC1=CC2C3Cc4ccc(OC)c(O)c4C2(CCN3C)CC1=O (stereo unspecified),nt,nt,-1,3,1%,-0.5%,-4%
C[n+]1cccc(C(=O)N/N=C/c2ccc3c(c2)OCO3)c1,-5.4,-16%,3,7,9%,nt,?
COc1ccc(C2=CC(c3ccc(OC)c(OC)c3)c3c(c4ccccc4oc3=O)O2)cc1OC (stereo unspecified),6.6,-6%,nt,-19,0%,?,?
CCCCn1c(O)c(C(C)=Nc2ccc(OCC)cc2)c(=O)[nH]c1=O,14,-20%,-1,-3,-6%,1.3%,-4%
N[C@@H](Cc1c[nH]c2ccccc12)c1nnc(SCc2ccc(Cl)cc2)o1,1.2,-5%,-12,-8,7%,-4.8%,-28%
O=C1CC(=O)N(Cc2ccccc2)C(=O)N1CCCCCCN1C(=O)CC(=O)N(Cc2ccccc2)C1=O,?,-4%,?,0,-14%,nt,-1%[15.4 µM]

# A different layout for some results above:
# Below each SMILES – Menin MLL FP FL | Sfp PPTase inh | CtBP-E1A inh | TRPV1 potentiator | gsp antag | ClpP mod | gsp agonist
Cc1ccc(C2(O)CN3CCC2CC3)cc1 (stereo unspecified)
    -18 | -9% | 3 | 4 | 8% | -1.5% | -18%
CCCCNC(=O)c1c(N)n(Cc2ccc3c(c2)OCO3)c2nc3ccccc3nc12
    2.0 | 11% | 29 | 3 | 38%[activator] | 10µM* | -15%
Cc1cccc(NC(=O)CN2CCN(C(=O)COc3cccc(Br)c3)CC2)c1C
    nt | nt | -5 | -21 | -11% | 0.4% | -19%
